Screening results from PubChem.
SmPrx2 inh = inhibitors of Schistosoma mansoni peroxiredoxin 2. Potency, µM. S. mansoni Prx2 activity coupled to TGR/GSH (TGR is thioredoxin glutathione reductase), NADPH fluorescence loss, qHTS; some inactives read as strong as hits. hit rate 0.07% among 65,000; active means full or partial inhibition curve with a strong effect at the top dose; inconclusive means weaker partial or single-point curve; inactive means no accepted curve; also: series up to 57 µM; many of its hits are not listed in these tables
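Coupled assay in which S. mansoni TGR passes NADPH reducing equivalents via glutathione to Prx2, which reduces H2O2. Compounds were preincubated 15 min at room temperature with 25 nM TGR/50 nM Prx2 mix. Kinetic NADPH fluorescence loss (ex 365/em 450 nm) was monitored.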
Anthrax LT inh = inhibitors of anthrax lethal toxin internalization | Potency, µM (top dose mostly 40 µM), without a hit: at the top dose activity change, negative = inhibition, most hits filed as inhibitors | AID 912 | Cells, anthrax lethal toxin internalization, FRET ratio (460/530) | hit rate 0.67% among 70,000; active = well fitted falling ratio curve with the 530 nm signal flat; inconclusive = other ratio curves, or a change in one channel alone; inactive = flat curves in the ratio and both channels; the % refers to the ratio; also: % is scaled to controls: 0 for no effect and ±100 for the full control effect; nearly all actives have a fitted effect of over 50% in size; tested in ME-180 cells; beta-lactamase reporter
The depositor's hits bear a star; ? = inconclusive; · = no result given; & = joins results of further samples; [ ] = dose if it differs, or a comment. Potency is read from the fitted curve at half-maximal effect. The list is partial; the hit share may differ from the screen's.

Every second line gives: SmPrx2 inh, Anthrax LT inh
> Cc1cc(C(=O)N2CCc3ccccc32)c2cc(F)ccc2n1
    >57, ?
> O=C(CSc1nc2ccc(Cl)cc2[nH]1)NCc1ccco1
    >57, 0.0%
> Cc1ccc(C(C)C)c(OCc2nnc(SCC(=O)Nc3nccs3)n2C)c1
    >57, -20.0%
> COc1ccc(-c2noc(C3CCCN(S(=O)(=O)c4ccc(C)c(Cl)c4)C3)n2)cc1OC (centres undefined)
    >57, ?
> Cc1occc1-c1nnc(SCC(=O)c2ccccc2)n1CC1CCCO1 (centres undefined)
    >57, -7.3%
> CN(Cc1ccco1)c1ncncc1-c1ccc2c(c1)OCO2
    >57, -13.4%
> Cc1ccccc1N
    ·, ?
> CCOC(=O)c1cccc(NC(=O)c2cc3sccc3n2C)c1
    >57, ?
> CCN1CCN(CC(=O)NC2CCCC2)C(=O)C1=O
    >57, -4.6%
> O=C(CN(C(=O)CNC(=O)c1ccco1)c1ccc(Cl)c(Cl)c1)NC1CCCCC1
    ·, -14.8%
> Cn1c(NCCCO)nc2c(c1=O)C1(CCCCC1)Cc1ccccc1-2
    >57, -10.6%
> CCC(=O)c1ccc(OCc2ccc(C(=O)OC)o2)c(OC)c1
    >57, 5.0%
> CCOc1ccc(C2=Nn3cnnc3SC2)cc1
    >57, ?
> C=CCc1ccc(OCC(O)COCC)c(OC)c1 (centres undefined)
    ·, -0.4%
> CC(C)Cc1cc(C(=O)Nc2ccc(F)cc2F)no1
    >57, -13.9%
> CCOc1ccccc1OCCCC(=O)N1CCN(S(=O)(=O)c2cccc(F)c2)CC1
    >57, -6.9%
> CCCc1nc2ccccc2c(=O)n1/N=C/c1ccc(O)c(O)c1
    >57, ?
> O=C(CCc1ccc(S(=O)(=O)N2CCOCC2)cc1)NCCCN1CCCC1=O
    >57, 5.7%
> CCOc1ccc(NC(=O)C2CCC(N3C(=O)C4CC=CCC4C3=O)CC2)cc1 (centres undefined)
    >57, -16.7%
> CCc1ccccc1N(C)C(=O)CCc1nc(-c2ccc(C)cc2)no1
    >57, -8.5%

(continued)
Every second line gives: SmPrx2 inh, Anthrax LT inh
> COc1cc(C(=O)Nc2nc(OC)c(-c3ccccc3)c(OC)n2)cc(OC)c1OC
    >57, -10.1%
> O=C(NCc1ccco1)C1CCCCN1S(=O)(=O)c1ccc(F)cc1 (centres undefined)
    >57, -1.9%
> Cc1ccc(C(=O)/C=C/Nc2ccccc2C(N)=O)o1
    >57, 23.7%
> Cc1cc2c(c(Sc3ccccc3)n1)C(=O)OC2
    >57, 3.3%
> O=C(NCc1ccco1)c1c[nH]c2ccc(S(=O)(=O)N3CCOCC3)cc2c1=O
    >57, ?
> COc1ccc(OCC(O)Cn2c(Nc3ccccc3)nc3c2c(=O)n(C)c(=O)n3C)cc1 (centres undefined)
    >57, 3.8%
> CCC(=O)N(CC)c1nc(-c2ccc(OC)cc2)cs1
    >57, -22.7%
> O=C(NC1CCCC1)C(c1ccc(O)cc1)N(CC1CCCO1)C(=O)C1COc2ccccc2O1 (centres undefined)
    >57, ?
> Cc1ccc2oc(=O)n(CCOc3ccccc3Cl)c2c1
    >57, -12.3%
> COc1ccc(/C(O)=C2/C(=O)C(=O)N(CCN(C)C)C2c2ccccc2)cc1Cl (centres undefined)
    >57, 1.7%
> COc1ccc(S(=O)(=O)N2CCCC2C(=O)Nn2cnnc2)cc1 (centres undefined)
    >57, -1.9%
> COCCNC(=O)c1ccc(N2CCCCC2)c(NS(=O)(=O)c2ccc(C)cc2)c1
    ·, -0.6%
> CCN(CC)C(=O)c1ccc(NC(=O)Cn2nc(C)c3ccccc3c2=O)cc1
    >57, 5.7%
> COC(=O)Cc1c(C)nc2nc(NCc3c(F)cccc3Cl)[nH]n2c1=O
    >57, -5.4%
> O=C(NC1CCN(Cc2ccccc2)CC1)C1CCN(S(=O)(=O)c2cccc3nsnc23)CC1
    >57, 11.4%
> C=CC(=C)CC(NC)c1ccccc1 (centres undefined)
    >57, ?
> COC(=O)c1ccccc1NC(=O)CN1CCC(C(=O)c2ccc3c(c2)OCCO3)CC1
    >57, ?
> CCOC(=O)c1nc(S(C)(=O)=O)ncc1N1CCOCC1
    >57, -5.0%
> C#CCCCC(=O)Nc1ccccc1
    >57, 7.8%
> COc1ccc(NC(=O)CSc2nccn2-c2cccc(OC)c2)cc1
    >57, -9.2%

The results go on:
Every second line gives: SmPrx2 inh, Anthrax LT inh
> O=C(COC(=O)c1ccc(=O)n(Cc2ccccc2)n1)Nc1ccc2c(c1)OCCO2
    >57, 9.1%
> CN(C)C(=O)c1ccc(-c2ccc3ncnc(NCc4cccs4)c3c2)cc1
    >57, -1.9%
> COc1cc(S(=O)(=O)N2CCN(C(=O)c3ccccc3F)CC2)c(OC)cc1NC(C)=O
    >57, -13.8%
> COc1ccccc1N1CCN(Cc2ccc(OC)c3ccccc23)CC1
    ·, ?
> O=S(=O)(c1ccc(Cl)cc1)c1ccccn1
    >57, -0.8%
> C=CCOC(=O)C1=C(C)NC(C)=C(C(=O)OCC=C)C1c1ccc(O)cc1
    ·, -16.7%
> O=C(CSc1n[nH]c(-c2ccco2)n1)N1c2ccccc2Sc2ccccc21
    >57, ?
> CC(C)C(=O)CP(=O)(O)O
    >57, 3.1%[8 µM]
> CCN(Cc1nc2ccccc2c(=O)[nH]1)Cc1cc(=O)oc2cc(C)c(C)cc12
    >57, -4.1%
> N/C(COc1ccc(C(=O)O)cc1)=N\O
    >57, -4.4%
> O=C(Oc1ccc(-c2ccccc2)cc1)N1CCCCC1
    >57, ?
> CCN1CCN(C(c2cccs2)C(C)NC(=O)c2cccc(OC)c2OC)CC1 (centres undefined)
    >57, 7.8%
> Cc1noc(C)c1S(=O)(=O)N(C)CC(=O)NCc1ccccc1
    >57, 8.7%
> Cc1nc2ccccn2c1/C(O)=C1\C(=O)C(=O)N(CCN2CCOCC2)C1c1cccs1 (centres undefined)
    >57, -14.7%
> CCOC(=O)c1ncn2c1CN(C)C(=O)c1cc(F)ccc1-2
    >57&>57, -13.1%&-23.0%
> Cc1cc(C)c(S(=O)(=O)N2CCN(c3nc4c(c(=O)n(C)c(=O)n4C)n3C)CC2)c(C)c1
    >57, 8.6%
> N#Cc1c(NC(=O)c2ccc(Cn3cc(Br)cn3)o2)sc2c1CCCCCC2
    >57, ?
> COCCN(CC(=O)Nc1cccc(C)c1)S(=O)(=O)c1ccc(S(=O)(=O)N2CCCC2)cc1
    >57, -12.5%
> O=C1NCCN1Cc1cccc(Cl)c1
    >57, ·
> COc1ccc(NC(=O)C(F)(OC)C(F)(F)F)c(OC)c1 (centres undefined)
    >57, ?

Four of the compounds above, as labelled records:
> O=C(Oc1ccc(-c2ccccc2)cc1)N1CCCCC1
  SmPrx2 inh = >57	Anthrax LT inh = ?

> CCN1CCN(C(c2cccs2)C(C)NC(=O)c2cccc(OC)c2OC)CC1 (centres undefined)
  SmPrx2 inh = >57	Anthrax LT inh = 7.8%

> Cc1noc(C)c1S(=O)(=O)N(C)CC(=O)NCc1ccccc1
  SmPrx2 inh = >57	Anthrax LT inh = 8.7%

> Cc1nc2ccccn2c1/C(O)=C1\C(=O)C(=O)N(CCN2CCOCC2)C1c1cccs1 (centres undefined)
  SmPrx2 inh = >57	Anthrax LT inh = -14.7%

(continued)
Structure | SmPrx2 inh | Anthrax LT inh
O=c1[nH]c(SCc2ccccc2Cl)nc2c1cnn2-c1ccccc1 | >57 | ?
Cc1ccc2cc(C)c(N3CCN(c4ccccn4)CC3)nc2c1 | >57 | -15.8%
Cc1nccn1-c1ncnc2sc3c(c12)CCCC3 | · | -2.1%
CCNC(=O)[C@@H]1O[C@@H](n2cnc3c(N)ncnc32)[C@@H](O)[C@H]1O | >57 | -1.9%
CC(C)CCNC(=O)CN(C(=O)Cn1nnc(-c2ccc(F)cc2)n1)C1CCCC1 | >57 | -7.5%
CCc1c(C)c(C#N)c2nc3ccccc3n2c1Nc1c(C)n(C)n(-c2ccccc2)c1=O | >57 | ·
CC(C)CN(C(=O)COC(=O)CCc1c[nH]c2ccccc12)C1CCS(=O)(=O)C1 (centres undefined) | >57 | 2.4%
Cc1cc(C)n(S(=O)(=O)c2cc(Cl)ccc2Cl)n1 | >57 | -10.7%

Other entries
Structure | SmPrx2 inh | Anthrax LT inh
Cc1c(Cl)ccc2c1NC(=O)[C@]21[C@@H]2C(=O)N(Cc3ccccc3)C(=O)[C@@H]2[C@@H]2CCCN21 | >57 | ?
CC(=O)c1c(C)nn(C(=O)c2cccs2)c1C | >57 | -2.9%
Cc1cc(C)c(NC(=O)CN2C(=O)NC3(CCCCC3)C2=O)c(Cl)c1 | >57 | ?
CCOC(=O)c1c(NCc2ccc3c(c2)OCO3)c2ccccc2[nH]c1=O | >57 | ·
O=C(Nc1ccccc1)N1CCC2(CCNCC2)CC1 | >57 | -15.0%
Cc1cc(C)c(C#N)c(N2CCCC(C(N)=O)C2)n1 (centres undefined) | >57 | -6.9%
O=C(CNS(=O)(=O)c1ccc(Br)s1)N1CCN(c2ncccn2)CC1 | >57 | -0.2%
CN1CCN(c2ncc3nc(-c4cccc(C#N)c4)c(=O)n(C)c3n2)CC1 | >57 | ?

Following part.
Structure | SmPrx2 inh | Anthrax LT inh
O=C(c1cnn2c(C(F)F)cc(-c3ccccc3)nc12)N1CCN2CCCC2C1 (centres undefined) | >57 | -7.4%
CSc1nnc(-c2ccccc2)c(=O)[nH]1 | >57 | -1.3%
C=CCn1c(SCC(=O)NCc2ccc3c(c2)OCO3)nnc1C1CCCCC1 | >57 | 0.9%
Cc1ccc(SCN2CCCCC2)cc1 (tested in a mixture with another compound) | >57 | ?
Cc1oc(-c2ccccc2F)nc1CS(=O)(=O)CC(=O)N1CCCCCC1 | >57 | -1.0%
CCn1c(SCC(=O)Nc2ccc3c(c2)OCCO3)nnc1-c1ccccn1 | >57 | 0.4%
Cc1nn(-c2cc(N3CCCCC3)ccc2N)c(=O)c2ccccc12 | >57 | -4.5%
O=C(O)C/C(=C\c1ccccc1)C(=O)O | >57 | 4.7%[8 µM]

Full records, looked up by structure. Screens in order: SmPrx2 inh	Anthrax LT inh
Cc1ccc(SCN2CCCCC2)cc1 (tested in a mixture with another compound) reads >57	?
Cc1nn(-c2cc(N3CCCCC3)ccc2N)c(=O)c2ccccc12 reads >57	-4.5%
C=CCn1c(SCC(=O)NCc2ccc3c(c2)OCO3)nnc1C1CCCCC1 reads >57	0.9%
CCn1c(SCC(=O)Nc2ccc3c(c2)OCCO3)nnc1-c1ccccn1 reads >57	0.4%
CSc1nnc(-c2ccccc2)c(=O)[nH]1 reads >57	-1.3%

New compounds follow.
Structure | SmPrx2 inh | Anthrax LT inh
COc1cccc(NC(=O)N(Cc2ccco2)C(C)c2cccs2)c1 (centres undefined) | >57 | -12.1%
c1cnc(N2CCN(c3nc4ccccc4n4cnnc34)CC2)nc1 | >57 | ?
CCNc1nc(N)nc(Oc2ccc(C(=O)OC)cc2)n1 | >57 | -6.2%
O=C(CCn1[nH]c(=O)c2ccccc2c1=O)OC1CCCCC1 | >57 | -6.6%
CS(=O)(=O)N(CC(=O)NCc1ccco1)Cc1ccc(Cl)cc1 | >57 | -3.0%
CCc1nnc(NC(=O)CCC(=O)N2CCN(Cc3ccccc3)CC2)s1 | >57 | -11.5%
COC(=O)[C@@]1(Cc2ccc(OC)cc2)[C@H]2c3cc(C(=O)N4CCCC4)n(C[C@H](O)CO)c3C[C@H]2CN1C(=O)c1ccccc1 | >57 | 6.3%
CC(C)(O)C#CC#CCN1CCOCC1 | >57 | ·

Next structures.
Structure | SmPrx2 inh | Anthrax LT inh
O=C(Cn1nc(Cc2cccnc2)c2ccccc2c1=O)NCCCN1CCCC1=O | >57 | -9.3%
COCCCn1c(SCC(=O)N2CCCC(C)C2)nnc1-c1ccco1 (centres undefined) | >57 | ?
O=C(c1ccc2c(c1)OCO2)N1CCc2ccccc2C1 | >57 | -2.5%
Cc1cc(C)c2cc(C(c3nnnn3C3CCCC3)N3CCOCC3)c(=O)[nH]c2c1 (centres undefined) | >57 | -15.7%
O=c1c2ccccc2ncn1Cc1nc2ccccc2s1 | >57 | 7.7%
COCCn1cc(C(=O)N2CCCC(C)C2)c2c3ccccc3n(C)c2c1=O (centres undefined) | >57 | 0.8%
COc1cc(C(=S)N(C)C)ccc1O | >57 | ?
O=C(NCCO)c1c(O)c2cccc3c2n(c1=O)CC3 | >57 | 10.6%

Remaining list, next part.
Structure | SmPrx2 inh | Anthrax LT inh
COc1ccc2[nH]cc(CCNc3nc(-c4ccoc4)nc4ccccc34)c2c1 | >57 | ?
Cn1c(=O)c(=O)n(C)c2cc(S(=O)(=O)N3CCC(N4CCCCC4)CC3)ccc21 | >57 | -2.0%
CN(C)CCNC(=O)c1ccc(CS(=O)(=O)c2ccc(Br)cc2)o1 | >57 | -15.3%
CCOC(=O)c1nn(-c2ccc3c(c2)CCN3C(C)=O)cc1O | >57 | -10.1%
CC(=O)Nc1cccc(NC(=O)CSc2nnnn2Cc2ccccc2)c1 | >57 | -12.0%
CCS(=O)(=O)n1nc(-c2ccc(C)cc2)nc1N | >57 | 8.8%
O=C(O)c1ccc(Cn2cc(Cl)cn2)cc1 | >57 | ?
